Compound activity: PubChem BioAssay, Broad Institute
Vaccinia inh: blocks a specific stage of Vaccinia orthopoxvirus infection; Vaccinia-infected cells, mCherry/Venus stage reporter fluorescence; hits give low values; some inactives read as strong as hits; AID 1053133; activity change (mCherry), % (concentration not given with the values); 89,000 compounds, 0.01% hits;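 active means mCherry past -33% and 40 or more points under the early reporter, replicates agreeing; inconclusive means past -33% without that gap or agreement; tested in A549 cells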;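 further: scaled between vehicle wells and reference inhibitor wells; 23 nL library stock went into each well; one replicate is shown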
Vaccinia inh Venus: recorded beside Vaccinia inh, whose call it bears; activity change (Venus), %; measured here: Venus reporter, other viral stage;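 negative = less Venus signal; first of two replicates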
Numbers without * were called inactive; ? = inconclusive; . = no result given. An excerpt. The share of hits here may be higher or lower than overall.

SMILES	Vaccinia inh	Vaccinia inh Venus
COc1ccc(CN2[C@H](CO)[C@@H]3c4ccccc4N(C(=O)Nc4ccccc4)C[C@@H]32)cc1	5	4
C[C@H](NC(=O)C[C@@H]1CC[C@H](NC(=O)C2CCOCC2)[C@@H](CO)O1)c1ccccc1	8	2
O=C(N[C@@H]1C=C[C@H](CC(=O)N2CCOCC2)O[C@@H]1CO)c1cccc(F)c1	6	7
COC(=O)C[C@H]1C[C@H]2c3cc(NC(=O)C4CCC4)ccc3O[C@H]2[C@@H](CO)O1	11	6
CN1CCN(C(=O)C[C@@H]2CC[C@H]3[C@@H](COC[C@@H](O)CN3C(=O)C3CC3)O2)CC1	9	13
Cc1ccc(S(=O)(=O)Nc2ccc3c(c2)C(=O)N([C@@H](C)CO)C[C@H](C)[C@@H](CN(C)C)O3)cc1	13	2
C[C@@H]1CN([C@H](C)CO)S(=O)(=O)c2ccc(C#CC3CC3)cc2O[C@@H]1CN(C)C(=O)CN(C)C	-11	-8
COc1ccc(S(=O)(=O)Nc2ccc3c(c2)CC(=O)N([C@H](C)CO)C[C@@H](C)[C@H](CN(C)Cc2ccc(Cl)c(Cl)c2)O3)cc1	?	.
C[C@@H]1CN([C@H](C)CO)C(=O)c2cc(NS(=O)(=O)c3cn(C)cn3)ccc2O[C@@H](C)CCCCO[C@@H]1CN(C)CC1CC1	19	9
CCN1[C@@H]2c3ccc(C4=CCCCC4)c(=O)n3C[C@H]1[C@H](CO)[C@H]2C(=O)N1CCCCC1	10	8
CC=Cc1ccc2n(c1=O)C[C@@H]1[C@@H](CO)[C@H](C(=O)N3CCc4ccccc4C3)N(C(=O)CC)[C@H]21 (mixture of isomers)	-3	5
CCC(=O)N(C)C[C@H]1Oc2cc(C#Cc3ccccn3)ccc2S(=O)(=O)N([C@@H](C)CO)C[C@@H]1C	-9	0
C[C@H]1CN([C@@H](C)CO)S(=O)(=O)c2ccc(-c3ccc(C(=O)N(C)C)cc3)cc2O[C@@H]1CN(C)C(=O)Cc1ccccn1	9	7
CC(C)NC(=O)N(C)C[C@H]1Oc2ccc(NC(=O)Cc3ccccc3)cc2CC(=O)N([C@@H](C)CO)C[C@@H]1C	1	-6
C[C@@H](O)C#Cc1ccc2c(c1)O[C@@H](CN(C)C(=O)c1ccccc1)[C@@H](C)CN([C@@H](C)CO)S2(=O)=O	7	13
CC(C)NC(=O)Nc1cccc2c1O[C@H](CN(C)C(=O)Nc1ccccc1)[C@H](C)CN([C@@H](C)CO)C2=O	-9	-9
Cc1cccc(NC(=O)C[C@H]2CC[C@H]3[C@@H](COc4ccc(NC(=O)C5CCC5)cc4C(=O)N3C)O2)c1	-29	-28
C[C@H](CO)N1C[C@H](C)[C@H](CN(C)C(=O)CN2CCOCC2)Oc2cc(C#Cc3cccc(F)c3)ccc2S1(=O)=O	?	.
Cc1noc(C)c1NC(=O)N[C@H]1CC[C@@H](CC(=O)NCCCN(C)C)O[C@H]1CO	-3	1
CN1C(=O)c2cc(NC(=O)C3CCOCC3)ccc2OC[C@H]2O[C@@H](CC(=O)NC3CCCC3)CC[C@H]21	-3	-5
CC(C)C#Cc1ccc([C@@H]2[C@H](CO)N3C(=O)CN(C(=O)NC4CCCC4)C[C@@H]23)cc1	-8	-3
Cc1noc(C)c1NC(=O)Nc1ccc2c(c1)C(=O)N([C@@H](C)CO)C[C@H](C)[C@@H](CN(C)C(=O)NC1CCCCC1)OCCCC[C@H](C)O2	-2	0
COc1ccc(NC(=O)N(C)C[C@@H]2Oc3ccc(NC(=O)NC(C)C)cc3CC(=O)N([C@H](C)CO)C[C@H]2C)cc1	2	-3
Cc1noc(C)c1NC(=O)Nc1ccc2c(c1)C(=O)N([C@H](C)CO)C[C@H](C)[C@@H](CN(C)Cc1ccccc1)OCCCC[C@H](C)O2	19	8
O=C(C1CCOCC1)N1C[C@@H]2[C@H](c3ccccc31)[C@H](CO)N2Cc1ccccc1	0	2
O=C(C[C@H]1CC[C@@H]2[C@H](COC[C@H](O)CN2S(=O)(=O)c2ccccc2)O1)NCc1ccc(-c2ccccc2)cc1	?	.
CC(C)C#Cc1cnc2c(c1)C(=O)N([C@@H](C)CO)C[C@@H](C)[C@@H](CN(C)Cc1ccccn1)O2	13	14
Cc1ccc(-c2ccc3c(c2)O[C@H](CN(C)C(=O)CN(C)C)[C@@H](C)CN([C@H](C)CO)S3(=O)=O)cc1	-28	-20
COCC(=O)Nc1ccc2c(c1)C(=O)N(C)C[C@@H](OC)[C@@H](C)CN(C(=O)Cc1cccnc1)[C@@H](C)CO2	13	17
C[C@@H]1CN([C@@H](C)CO)C(=O)c2cc(NC(=O)Nc3ccc4c(c3)OCO4)ccc2O[C@@H]1CN(C)S(C)(=O)=O	16	11
CCCC(=O)Nc1ccc2c(c1)OC[C@H](C)N(Cc1cccc(F)c1)C[C@H](C)[C@@H](OC)CN(C)C2=O	-19	-9
C[C@@H]1CN([C@@H](C)CO)C(=O)c2cccc(NS(C)(=O)=O)c2O[C@H]1CN(C)S(=O)(=O)c1cccs1	38	20
COc1ccc(NC(=O)Nc2ccc3c(c2)C(=O)N([C@H](C)CO)C[C@@H](C)[C@@H](CN(C)C(=O)Nc2ccc(F)cc2)O3)cc1	2	0
CO[C@@H]1CN(C)C(=O)c2ccc(NC(=O)c3cc(C)on3)cc2OC[C@@H](C)NC[C@H]1C	-5	4
CC(C)C#Cc1ccc2c(c1)O[C@H](CN(C)C(=O)c1cccnc1)[C@@H](C)CN([C@H](C)CO)S2(=O)=O	14	3
CC(C)C#Cc1ccc([C@@H]2[C@H](C#N)N(C(=O)CN(C)C)[C@H]2CO)cc1	-4	-4
COc1ccc(C#Cc2cnc3c(c2)C(=O)N([C@H](C)CO)C[C@H](C)[C@H](CN(C)C(=O)Nc2ccc(F)cc2)O3)cc1OC	?	.
CO[C@H]1CC[C@H]2CCOc3ccc(C#N)cc3C(=O)N(C)C[C@@H](c3ccccc3)CC(=O)N(C)C[C@@H]1O2	14	-4
COc1cccc(-c2ccc([C@H]3[C@@H](CO)N4C(=O)CN(C(=O)c5cccnc5)C[C@@H]34)cc2)c1	-7	-10
COCC(=O)N1[C@H](C#N)[C@H](c2ccc(C#Cc3ccccc3F)cc2)[C@@H]1CO	-4	-10

Quoted from the listing (11 entries):
SMILES	Vaccinia inh	Vaccinia inh Venus
C[C@@H]1CN([C@@H](C)CO)C(=O)c2cc(NC(=O)Nc3ccc4c(c3)OCO4)ccc2O[C@@H]1CN(C)S(C)(=O)=O	16	11
CCCC(=O)Nc1ccc2c(c1)OC[C@H](C)N(Cc1cccc(F)c1)C[C@H](C)[C@@H](OC)CN(C)C2=O	-19	-9
C[C@@H]1CN([C@@H](C)CO)C(=O)c2cccc(NS(C)(=O)=O)c2O[C@H]1CN(C)S(=O)(=O)c1cccs1	38	20
COc1ccc(NC(=O)Nc2ccc3c(c2)C(=O)N([C@H](C)CO)C[C@@H](C)[C@@H](CN(C)C(=O)Nc2ccc(F)cc2)O3)cc1	2	0
CO[C@@H]1CN(C)C(=O)c2ccc(NC(=O)c3cc(C)on3)cc2OC[C@@H](C)NC[C@H]1C	-5	4
CC(C)C#Cc1ccc2c(c1)O[C@H](CN(C)C(=O)c1cccnc1)[C@@H](C)CN([C@H](C)CO)S2(=O)=O	14	3
CC(C)C#Cc1ccc([C@@H]2[C@H](C#N)N(C(=O)CN(C)C)[C@H]2CO)cc1	-4	-4
COc1ccc(C#Cc2cnc3c(c2)C(=O)N([C@H](C)CO)C[C@H](C)[C@H](CN(C)C(=O)Nc2ccc(F)cc2)O3)cc1OC	?	.
CO[C@H]1CC[C@H]2CCOc3ccc(C#N)cc3C(=O)N(C)C[C@@H](c3ccccc3)CC(=O)N(C)C[C@@H]1O2	14	-4
COc1cccc(-c2ccc([C@H]3[C@@H](CO)N4C(=O)CN(C(=O)c5cccnc5)C[C@@H]34)cc2)c1	-7	-10
COCC(=O)N1[C@H](C#N)[C@H](c2ccc(C#Cc3ccccc3F)cc2)[C@@H]1CO	-4	-10

Next part
SMILES	Vaccinia inh	Vaccinia inh Venus
COc1ccc2c3c(n(C)c2c1)[C@@H](CO)NCC31CCN(C(=O)c2ccc(F)cc2)CC1	-12	-12
COc1ccc2c3c(n(C)c2c1)[C@H](CO)N(Cc1ccccc1F)CC31CCN(CC2CC2)CC1	?	.
COCC(=O)Nc1ccc2c(c1)[C@H]1C[C@H](CC(=O)NCc3ccccc3)O[C@H](CO)[C@H]1O2	-3	-6
Cc1noc(C)c1NC(=O)N(C)C[C@@H]1OCCCC[C@@H](C)Oc2ccc(N(C)C)cc2C(=O)N([C@@H](C)CO)C[C@@H]1C	-2	10
C/C=C/c1ccc2c(c1)O[C@H](CN(C)C)[C@H](C)CN([C@H](C)CO)S2(=O)=O	10	0
CN(C)CC#Cc1cccc(-c2nc(C(=O)N3CCN(C)CC3)cc3c2[C@H](CCO)N(S(=O)C(C)(C)C)C3)c1 (stereo partly drawn)	-3	-4
CNC[C@@H]1Oc2c(NC(=O)C3CCCCC3)cccc2C(=O)N([C@H](C)CO)C[C@@H]1C	4	4
CO[C@@H]1CN(C)C(=O)c2cc(NC(=O)C3CCOCC3)ccc2OC[C@@H](C)N(S(=O)(=O)c2ccc(Cl)cc2)C[C@H]1C	-1	3
CCCC#Cc1ccc2c(c1)O[C@H](CN(C)Cc1cncnc1)[C@H](C)CN([C@H](C)CO)S2(=O)=O	-15	-18
CC(C)C#Cc1ccc2c(c1)O[C@@H](CN(C)Cc1ccccn1)[C@@H](C)CN([C@@H](C)CO)S2(=O)=O	-13	-9
CC(C)NC(=O)Nc1ccc2c(c1)CC(=O)N([C@H](C)CO)C[C@H](C)[C@H](CN(C)Cc1ccc3c(c1)OCO3)O2	-6	-4
COc1ccc(NC(=O)Nc2ccc3c(c2)C(=O)N([C@H](C)CO)C[C@@H](C)[C@@H](CN(C)Cc2ccncc2)O3)cc1	-1	0
Cc1ccc(S(=O)(=O)N(C)C[C@H]2Oc3ccc(NC(=O)Cc4cn(C)c5ccccc45)cc3CC(=O)N([C@H](C)CO)C[C@@H]2C)cc1	1	12
C[C@@H]1CN([C@@H](C)CO)C(=O)CCCn2cc(nn2)CO[C@@H]1CN(C)C(=O)Nc1ccc(N2CCCCC2)cc1	-7	-4
C/C=C/c1ccc2c(c1)O[C@@H](CN(C)Cc1ccc(C(=O)O)cc1)[C@@H](C)CN([C@H](C)CO)S2(=O)=O	10	8
Cc1noc(C)c1NC(=O)N(C)C[C@H]1OCCCC[C@H](C)Oc2ccc(NC(=O)CCC(F)(F)F)cc2C(=O)N([C@@H](C)CO)C[C@H]1C	17	9
CCC(=O)Nc1ccc2c(c1)C(=O)N(C)C[C@H](OC)[C@@H](C)CN(C(=O)Cc1cccnc1)[C@@H](C)CO2	-1	5
CCCNC(=O)N1CC2(CN(S(=O)(=O)c3ccccc3)C2)c2c(n(C)c3cc(OC)ccc23)[C@@H]1CO	-2	-5
CO[C@H]1CN(C)C(=O)c2cc(NC(=O)C3CC3)ccc2OC[C@@H](C)NC[C@H]1C	3	11
O=C(C[C@H]1C[C@H]2c3cc(NC(=O)Cc4ccncc4)ccc3O[C@H]2[C@H](CO)O1)NCc1ccccc1	8	4
CO[C@H]1CN(C)C(=O)c2cc(NC(=O)C3CCCC3)ccc2OC[C@@H](C)N(C(=O)CC2CC2)C[C@H]1C	6	8
CO[C@H]1CN(C)C(=O)c2ccc(NC(=O)CC(F)(F)F)cc2OC[C@H](C)N(C(=O)C2CCCCC2)C[C@@H]1C	13	9
COCCN(C[C@@H]1[C@@H](c2ccccc2)[C@H](CO)N1C(C)=O)C(=O)c1ccccc1	12	22
Cc1noc(C)c1S(=O)(=O)Nc1ccc2c(c1)C(=O)N([C@@H](C)CO)C[C@H](C)[C@@H](CN(C)C(=O)Nc1ccc(F)cc1)OCCCC[C@@H](C)O2	-21	-20
C[C@@H]1CN([C@H](C)CO)C(=O)Cc2cc(NC(=O)Nc3ccc(C(F)(F)F)cc3)ccc2O[C@H]1CN(C)Cc1ccncc1	23	9
C[C@H](CO)N1C[C@H](C)[C@H](CN(C)C(=O)Nc2cccc3ccccc23)Oc2ncc(/C=C/c3ccccc3)cc2C1=O	?	.
COc1ccc(S(=O)(=O)Nc2ccc3c(c2)C(=O)N(C)C[C@H](OC)[C@H](C)CN[C@H](C)CO3)cc1	10	7
CC(C)CC#Cc1ccc2c(c1)O[C@@H](CN(C)C(=O)C1CCC1)[C@@H](C)CN([C@H](C)CO)S2(=O)=O	-34	-27
C[C@@H]1CN([C@@H](C)CO)C(=O)c2cc(NS(=O)(=O)c3ccc(F)cc3)ccc2O[C@@H](C)CCCCO[C@H]1CN(C)C(=O)CCC(F)(F)F	?	.
Cc1noc(C)c1S(=O)(=O)Nc1ccc2c(c1)C(=O)N([C@@H](C)CO)C[C@H](C)[C@@H](CN(C)C)OCCCC[C@H](C)O2	18	9
C[C@@H]1CN([C@@H](C)CO)C(=O)Cc2cc(NC(=O)Nc3ccccc3)ccc2O[C@H]1CN(C)S(=O)(=O)c1ccc(F)cc1	0	5
CC(C)(O)C#Cc1ccc([C@@H]2[C@H](CO)N3CCCCN(C(=O)c4cccc(F)c4)C[C@@H]23)cc1	14	1
O=C(N[C@@H]1C=C[C@@H](CC(=O)N2CCOCC2)O[C@@H]1CO)c1ccc2c(c1)OCO2	-2	6
C[C@H](CO)N1C[C@H](C)[C@@H](CN(C)C(=O)C2CC2)Oc2cc(C3=CCCCC3)ccc2S1(=O)=O	-21	-17
COc1ccccc1CN1[C@@H]2CN(C(=O)C3CCCCC3)c3ccccc3[C@@H]2[C@@H]1CO	?	.
